GIRK2 activ – opens human GIRK2 potassium channels. P48051. HEK293-GIRK2 thallium flux, Thallos fluorescence. calls only for hits at 25 µM. 63,000 tested, 0.05% active;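 active means among the strongest 0.2% of first-round signals and kept after retests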;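 further: first round at about 10 µM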
Target sequence (P48051 whole entry, looked up): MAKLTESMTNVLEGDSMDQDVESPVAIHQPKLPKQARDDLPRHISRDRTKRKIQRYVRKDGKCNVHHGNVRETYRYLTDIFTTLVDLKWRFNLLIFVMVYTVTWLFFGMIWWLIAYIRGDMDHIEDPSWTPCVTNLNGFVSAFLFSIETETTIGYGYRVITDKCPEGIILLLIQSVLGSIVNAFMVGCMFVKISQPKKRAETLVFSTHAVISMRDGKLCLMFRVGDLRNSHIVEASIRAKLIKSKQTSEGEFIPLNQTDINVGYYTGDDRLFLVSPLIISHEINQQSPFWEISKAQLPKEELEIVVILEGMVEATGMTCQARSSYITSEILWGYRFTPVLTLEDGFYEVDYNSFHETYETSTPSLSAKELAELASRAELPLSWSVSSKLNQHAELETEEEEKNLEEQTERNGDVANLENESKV
Calls only; i = inactive.

The opening 4 compounds, ahead of the listing:
GIRK2 activ	Molecule
i	COc1ccc(NC(=O)C2CCN(c3c(C#N)cnc4ccc(F)cc34)CC2)c(C)c1
i	CCOC(=O)c1sc(NC(=O)NCc2ccc(F)cc2)nc1C
i	CCOC(=O)CN1CCN(c2nc3c(c(=O)[nH]c(=O)n3C)n2CCc2ccccc2)CC1
i	Cc1ccc2nc(N3CCN(C(=O)CCS(=O)(=O)Cc4ccccc4)CC3)sc2c1

All compounds of this part, repeating the preview:
GIRK2 activ	Molecule
i	COc1ccc(NC(=O)C2CCN(c3c(C#N)cnc4ccc(F)cc34)CC2)c(C)c1
i	CCOC(=O)c1sc(NC(=O)NCc2ccc(F)cc2)nc1C
i	CCOC(=O)CN1CCN(c2nc3c(c(=O)[nH]c(=O)n3C)n2CCc2ccccc2)CC1
i	Cc1ccc2nc(N3CCN(C(=O)CCS(=O)(=O)Cc4ccccc4)CC3)sc2c1
i	COc1cccc(-c2nc(C#N)c(N3CCN(C(=O)c4cccc(Cl)c4)CC3)o2)c1
i	O=C(NCc1ccc(F)cc1)N1CCC(c2nnc(-c3ccco3)s2)CC1
i	COc1ccccc1N1CCN(c2cc(SCC(=O)Nc3ccc(Cl)cc3F)ncn2)CC1
i	O=C(NCCn1ncccc1=O)c1cc(-c2cccs2)[nH]n1
i	Cc1nc(C)c(CNS(=O)(=O)c2ccc(Br)cc2)s1
i	COC(=O)c1ccc(N/C=C(\C#N)c2nc(-c3ccc(OC)cc3)cs2)cc1
i	Fc1cccc(-n2cc(-c3noc(-c4nccc5ccccc45)n3)nn2)c1
i	COc1ccc(C(=O)Nc2ccc3oc(=O)ccc3c2)cc1OC
i	CNCC(=O)NC(C)C12CC3CC(CC(C3)C1)C2 (stereo not given)
i	COc1cccc(C(=O)N2CCN(CC(O)C3CC3)CC2)c1OC (stereo not given)
i	CCCCn1c(-n2nc(C)c(C)c2C)nc2c1c(=O)n(CC(N)=O)c(=O)n2C
i	CCCCc1ccc(N2CCCn3c2nc2c3c(=O)n(CC(=O)O)c(=O)n2C)cc1
i	Cc1nc2ccccc2c(=O)n1-c1cccc(NC(=O)CC2CCCCC2)c1
i	COc1ccc(Cl)cc1NC(=O)NCCNc1ccc(-n2cccc2)nn1
i	NC(=O)c1sc(-n2cnc3ccccc32)cc1OCc1ccccc1Br
i	O=C(c1cc2n(n1)CCCO2)N1CCN(CCc2ccccc2)CC1

The final 2 records of the section before come first, to join the parts.
GIRK2 activ	Molecule
i	NC(=O)c1sc(-n2cnc3ccccc32)cc1OCc1ccccc1Br
i	O=C(c1cc2n(n1)CCCO2)N1CCN(CCc2ccccc2)CC1
i	CN1C(=O)c2ccccc2NC(=O)[C@]12O[C@@H]2c1cccc(O)c1
i	CC(C)N1CCC(CNC(=O)c2ccccc2C(F)(F)F)CC1
i	C=CCN1CC(c2nc3ccccc3n2Cc2cccc(C)c2)CC1=O (stereo not given)
i	COc1ccc(-n2nnc(C(=O)NCCCc3ccccc3)n2)cc1
i	O=C(CC1CCCC1)N1CCN(Cc2nnnn2-c2ccccc2)CC1
i	CCOc1ccc(-c2ccc(=O)n(CCNS(=O)(=O)c3ccc(Br)cc3)n2)cc1
i	CCn1c(-n2nc(C)c(C)c2C)nc2c1c(=O)n(CC(N)=O)c(=O)n2C
i	CN(C)C(=O)c1nnn(-c2ccc(NC(=O)CCSc3ccccc3)cc2)n1
i	COC(=O)c1ccc(C(=O)NC(C)Cc2ccco2)cc1 (stereo not given)
i	O=C1NC(=NCC(CO)c2ccccc2)S/C1=C\c1ccc2ncccc2c1 (stereo not given)
i	O=C(CSc1nnc(Cn2ccc(=O)[nH]c2=O)o1)Nc1ccc2c(c1)OCCO2
i	O=C(Cn1cccn1)N1CCC(Oc2cnccn2)CC1
i	CC(=O)N1CCc2c(sc(NC(=O)c3cccc(Cl)c3)c2-c2nc3ccccc3s2)C1
i	CCCCCC#CCC#CCC#CCCCCCCC(=O)O
i	CCN(CC)S(=O)(=O)c1ccc(-c2nc(C#N)c(N3CCC(C)CC3)o2)cc1
i	O=C(CSc1nccn1-c1ccc(C(=O)NCc2cccs2)cc1)Nc1ccccc1
i	O=c1ccc(-n2ccnc2)nn1CCNS(=O)(=O)Cc1cc(F)ccc1F
i	COc1cccc2cc(C(=O)Nc3ccc4c(c3)C(=O)NCC4)oc12
i	O=C(Nc1nc2c(s1)CN(S(=O)(=O)c1c(F)cccc1F)CC2)c1ccco1
i	O=C(NC1CCCCCC1)c1n[nH]c2ccccc12

(more compounds)
GIRK2 activ	Molecule
i	Cc1ccc2c(Nc3ccc(Br)cc3F)c(C(=O)N3CCCC3)cnc2n1
i	CC(C)Sc1ccc(CC(=O)N2CCC(CSC3=NCCS3)CC2)cc1
i	Nc1c(-c2nc(-c3ccccc3F)no2)nnn1-c1ccc(Br)cc1
i	O=C(Nc1ccccc1Br)c1n[nH]nc1Nc1ccc(Cl)cc1
i	O=C(Cn1nc2c(-c3nc(-c4cccc(Cl)c4)no3)cccn2c1=O)NC1CCCC1
i	CSc1cccc(NC(=O)c2cn(Cc3ccc(NC(=O)c4ccccc4F)cc3)cn2)c1
i	Cn1cnnc1SCCNC(=O)c1cc2ccccc2[nH]1
i	CCn1c(SCC(=O)Nc2cc(OC)ccc2OC)nc2c(-c3ccc(C)cc3)csc2c1=O
i	Cc1noc(-c2ccnc(-n3ncc(C(=O)N4CCN(Cc5ccccc5)CC4)c3C)c2)n1
i	O=C(NCc1ccccc1)c1nc(-c2ccncc2)cs1
i	COc1ccccc1N1CC(C)Cn2c1nc1c2c(=O)n(C/C=C/c2ccccc2)c(=O)n1C (stereo not given)
i	Cc1cc(C(=O)N2CCN(c3ccc(-c4noc(C(F)(F)F)n4)cn3)CC2)c(C)o1
i	COC(=O)c1ccc(NC(=O)CSc2ncc(CO)n2Cc2ccc(F)cc2)cc1
i	COC(=O)c1ccc2c(=O)n(CCCC(=O)NC3CCCCC3)c(=S)[nH]c2c1
i	COC(=O)c1ccc(NC(=O)Cc2c(C)nc(SC(C)c3ccccc3)[nH]c2=O)cc1 (stereo not given)
i	NC(=O)C1CCN(C(=O)c2ccc(OCc3nc(C4CC4)cs3)cc2)CC1
i	CCOC(=O)CCn1c(=O)c2c(nc3n(-c4cccc(OC)c4)c(C)cn23)n(C)c1=O
i	COc1ccc(OC)c(-c2cc(C(=O)NCC3CCN(C(=O)c4ccoc4)CC3)n(C)n2)c1
i	CCc1cccc2sc(NC(=O)C3CCN(S(=O)(=O)c4ccc(F)cc4)CC3)nc12
i	COc1cc(OC)cc(-c2noc(-c3nn(-c4ccc(C)c(C)c4)ccc3=O)n2)c1

Following part
GIRK2 activ	Molecule
i	O=C(/C=C/c1ccccc1)N1CCN(C2=NN=C(c3ccccc3)CS2)CC1
i	Cc1ccc2c(Nc3ccc(S(N)(=O)=O)cc3)c(C(=O)N3CCC(C)CC3)cnc2n1
i	O=C(NCCC(O)c1ccccc1)c1nc2ccccc2s1 (stereo not given)
i	O=C(CC1CCCC1)NCc1ccc(C(O)c2cccs2)s1 (stereo not given)
i	Cc1ccc(C)c(S(=O)(=O)NCCn2ncc3c(N4CCCCCC4)ncnc32)c1
i	CCCc1cnc2c(c1SCC(=O)Nc1ccccc1OC)c(=O)n(C)c(=O)n2C
i	CCc1c(C#N)c(SCC(=O)Nc2ccc(C)cc2)nc2c1C(=O)CC(C)(C)C2
i	Cc1ccc(Cl)cc1N1CCN(S(=O)(=O)N2CCC(C)CC2)CC1
i	Cc1ccc(C2Oc3ccccc3C3=C2C(c2cccnc2)n2nnnc2N3)cc1 (stereo not given)
i	O=C(NCC(O)c1ccoc1)C(=O)Nc1ccc2c(c1)CCCN2C(=O)c1cccs1 (stereo not given)
i	Cc1nc(SCc2ccccc2)[nH]c(=O)c1CC(=O)NC(C)CCc1ccccc1 (stereo not given)
i	O=C(Nc1ccc(-c2nc3ccccc3o2)cc1)Nc1ccccc1Cl
i	O=C(Nc1ccc2c(c1)OCO2)NC1CCCC(OC(=O)Nc2ccc(F)cc2)C1 (stereo not given)
i	Cc1cc(C(=O)Nc2nc3c(s2)CN(S(=O)(=O)c2c(F)cccc2F)CC3)no1
i	COc1ccc(C(=O)Oc2ccc3c(=O)c(-c4ccccc4OC)coc3c2)cc1
i	COc1ccccc1NC(=O)NCC1CCN(Cc2ccccc2)CC1
i	O=C(/C=C/c1cccc([N+](=O)[O-])c1)N(CCN1CCOCC1)c1nc2ccc(F)cc2s1
i	O=C(c1cncc(Br)c1)N1CCC(Oc2ncccc2Br)CC1
i	Cc1ccccc1C(=O)NC1=N/C(=C(/C#N)C(=O)NCC(C)C)c2ccccc21
i	O=C(Cn1ccn2nc(-c3cccs3)cc2c1=O)c1ccccc1

The list goes on:
GIRK2 activ	Molecule
i	O=S(=O)(NCc1cc(-c2ccncc2)n(C2CCCC2)n1)c1ccc2c(c1)OCCO2
i	N#Cc1nc(-c2ccccc2)oc1N1CCN(C(=O)c2cccc(Cl)c2)CC1
i	COC(=O)N1CCC(CNC(=O)Cc2ccc(SC(C)C)cc2)CC1
i	CSc1cccc2sc(N(Cc3cccnc3)C(=O)c3cccc(N4C(=O)CCC4=O)c3)nc12
i	CC(NC(=O)C(=O)NCCN1CCN(c2ccc(F)cc2)CC1)c1ccccc1 (stereo not given)
i	O=C(Nc1ccc2cn[nH]c2c1)C1CC(=O)N(c2ccc(F)cc2)C1 (stereo not given)
i	CC(C(=O)O)c1cccc(C(=O)c2ccccc2)c1 (stereo not given)
i	CCOc1ccc(C(=O)Nc2cccc(-n3c(C)nc4ccccc4c3=O)c2)cc1
i	CCCCCC(=O)/C=C/[C@@H]1[C@@H](C/C=C\CCCC(=O)O)[C@@H](O)C[C@H]1O
i	O=C(NCc1ccc(Cl)cc1)c1ccc2c(=O)nc3c(-c4ccccc4F)n[nH]n3c2c1
i	COc1ccc(-c2nnc3n(CCc4ccccc4)c4c(=O)n(C)c(=O)n(C)c4n23)cc1
i	CCNC(=O)c1nc(C(=O)NCc2cccc(OCC)c2)cs1
i	Cc1ccccc1-c1noc(-c2cccn(CC(=O)Nc3ccc(C(C)C)cc3)c2=O)n1
i	CC(O)(CCc1ccccc1)CNS(=O)(=O)Cc1cccc(Cl)c1 (stereo not given)
i	Cn1c(=O)c(NN)nc2cccnc21
i	COc1ccc(-c2nnc(NC(=O)c3cc4ccccc4cc3OC)o2)cc1
i	COc1ccc(N2CCCn3c2nc2c3c(=O)n(Cc3ccc(C)cc3)c(=O)n2C)cc1
i	O=C(c1cc2ccccc2[nH]1)N1CCCC(c2nnc(C(F)(F)F)o2)C1 (stereo not given)
i	NCCCNCCCCN(CCCN)[N+]([O-])=NO
i	COc1cccc(C(=O)Nc2ccc3c(c2)CCCN3C(=O)c2ccccc2)c1OC

Further compounds
GIRK2 activ	Molecule
i	COc1ccc(OC)c(Nc2nn3c(=O)c4cc(OC)c(OC)cc4nc3s2)c1
i	COc1ccc(Br)cc1CCC(=O)O
i	NC(=O)CSc1ncc(-c2cccc([N+](=O)[O-])c2)n1-c1ccc(OC(F)(F)F)cc1
i	COc1cccc(NC(=O)c2cn(Cc3ccc(NC(=O)c4ccc(Cl)cc4)cc3)cn2)c1
i	COc1nn(C)cc1C(=O)N1CCC(Oc2ccc(Cl)cn2)CC1
i	Cc1cccc(NC(=O)CSc2nnc3scc(-c4ccc(Cl)cc4)n23)c1
i	O=C(NCCCc1ccccc1)c1nnn(-c2ccc(Br)cc2)n1
i	COc1ccc(-c2nn3c(NCCCN4CCOCC4)cc(C)nc3c2C)cc1OC
i	N#Cc1ccc(OC2CCN(C(=O)COc3ccc(Cl)cc3Cl)CC2)nc1
i	COc1cccc(-c2noc(Cc3nnc(-c4ccc(C)c(C)c4)o3)n2)c1OC
i	CNC(=O)CN1CCN(Cc2nc(-c3ccccc3)cs2)CC1
i	O=S(=O)(c1cccc(Cl)c1)N1CCN(CCn2ccnc2-c2ccccc2)CC1
i	COc1ccccc1C(=O)NCCn1ncc2c(NCc3ccco3)ncnc21
i	O=C(CSc1nccn1-c1ccc(C(=O)NCc2cccs2)cc1)NCc1cccs1
i	O=C(Cn1cccc(S(=O)(=O)N2CCCC2)c1=O)Nc1ccccc1Br
i	COc1ccc(-c2c(C)oc3cc(OC(=O)c4ccc5c(c4)OCO5)ccc3c2=O)cc1OC
i	Cc1nc(-c2cccc(NS(=O)(=O)CCOc3ccccc3)c2)cs1
i	O=C1OC2CC1N(C(=O)/C=C/c1cccs1)C2 (stereo not given)
i	CN(C)C(CNC(=O)/C=C/c1ccsc1)c1ccc2c(c1)CCO2 (stereo not given)
i	COc1ccc2c(c1)CCN(C(=O)/C=C/c1ccco1)C2

Given bar-delimited: 4 of the compounds above.
structure | GIRK2 activ
Cn1c(=O)c(NN)nc2cccnc21 | i
CCOc1ccc(C(=O)Nc2cccc(-n3c(C)nc4ccccc4c3=O)c2)cc1 | i
O=C(/C=C/c1cccc([N+](=O)[O-])c1)N(CCN1CCOCC1)c1nc2ccc(F)cc2s1 | i
O=c1ccc(-n2ccnc2)nn1CCNS(=O)(=O)Cc1cc(F)ccc1F | i

Gathered by group, the compounds so far with a COOH group
GIRK2 activ	Molecule
i	CCCCc1ccc(N2CCCn3c2nc2c3c(=O)n(CC(=O)O)c(=O)n2C)cc1
i	CCCCCC#CCC#CCC#CCCCCCCC(=O)O
i	CC(C(=O)O)c1cccc(C(=O)c2ccccc2)c1 (stereo not given)
i	CCCCCC(=O)/C=C/[C@@H]1[C@@H](C/C=C\CCCC(=O)O)[C@@H](O)C[C@H]1O
i	COc1ccc(Br)cc1CCC(=O)O

Other results follow:
GIRK2 activ	Molecule
i	CS(=O)(=O)N1CCN(C(=O)c2cnn(-c3ccccc3)n2)CC1
i	CCCCn1c(=O)c2ccccc2n(Cc2nc(-c3ccc(OC(C)C)cc3)no2)c1=O
i	O=C(Nc1nc2c(s1)CN(C(=O)c1ccc(Cl)s1)CC2)c1ccsc1
i	CSc1ccccc1C(=O)N1CCC(C(=O)NCc2nc(C)no2)CC1
i	Cc1ccccc1CN1CC(c2noc(-c3ccco3)n2)CC1=O (stereo not given)
i	Cc1ccc(NC(=O)NCC2CCN(Cc3ccccc3)CC2)cc1C
i	CC(C)(C)CC(=O)Nc1cc(C2CC2)nn1-c1nc(-c2ccccc2)cc(=O)[nH]1
i	COc1ccccc1OCC#CCNC(=O)COc1cccc(C)c1
i	COc1ccc(NC(=O)NCC#CCN(C(C)C)C(C)C)cc1OC
i	CCS(=O)(=O)c1ccc2c(c1)N(Cc1nc(-c3ccc(SC)cc3)no1)C(=O)CO2
i	COC(=O)Nc1nc2ccc(Oc3ccc(NC(=O)Nc4cccc(C(=O)O)c4)cc3)cc2[nH]1

This is a subset. The share of hits here may be higher or lower than overall.
